D2 PAM: potentiates the human D2 dopamine receptor allosterically; P14416; DiscoveRx D2 beta-arrestin cells, luminescence, 90 min; 100% = 57 uM dopamine signal; potentiation, % (no concentration beside the values); actives 0.23% (n = 360,000); AID 624464; active = potentiation of 50% or more; inconclusive = 30% to 50%; inactive = 30% or less;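 also: compound concentration not given in the record; tested on top of an EC20 dose of dopamine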
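D2 cells co-treated with compound plus 50 nM dopamine (EC20) for 90 min at 37 deg C to detect potentiation. Beta-arrestin recruitment was read as enzyme-fragment luminescence after 1 h at ambient temperature. Full response was set by 57 uM dopamine.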
Sfp inh: Sfp phosphopantetheinyl transferase inhibition; Q9F4F7; Biochemical Sfp PPTase activity, qHTS; Potency, µM, inactives show max response, negative = inhibition, actives largely listed as inhibitors; actives 3.5% (n = 310,000); AID 1490; active = well fitted inhibition curve with a large enough effect; inconclusive = small, poorly fitted or top-dose-only effect, or another doubt; inactive = no such curve, though single readings can be large or run the other way;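 also: the enzyme is Sfp with the accession as filed and its product quenches rhodamine fluorescence; potency is read from the fitted curve at half-maximal effect; 0% = enzyme reaction without inhibitor and -100% = no enzyme wells; top concentration of the series not given in the record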
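Step 1, compound plus 15 nM Sfp-PPTase, 15 min, room temperature. Step 2, add rhodamine-CoA (5 uM) and BHQ-2-YbbR (12.5 uM). Step 3, read 525/598 nm fluorescence at 0 and 30 min.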
Six1-Eya2 inh: Six1/Eya2 interaction inhibition. actives 0.56% (n = 360,000). activity change, % (concentration not given with the values). AlphaScreen GST-Six1/His-Eya2 binding, biochemical; hits give low values; control for the full effect not named in the record. AID 651725. Q15475+O00167; in the data active = activity change below about -65%; inconclusive = about -30% to -65%; inactive = above about -30%; also: % is scaled to controls: 0 for no effect and ±100 for the full control effect
Target sequence (O00167 whole entry, looked up): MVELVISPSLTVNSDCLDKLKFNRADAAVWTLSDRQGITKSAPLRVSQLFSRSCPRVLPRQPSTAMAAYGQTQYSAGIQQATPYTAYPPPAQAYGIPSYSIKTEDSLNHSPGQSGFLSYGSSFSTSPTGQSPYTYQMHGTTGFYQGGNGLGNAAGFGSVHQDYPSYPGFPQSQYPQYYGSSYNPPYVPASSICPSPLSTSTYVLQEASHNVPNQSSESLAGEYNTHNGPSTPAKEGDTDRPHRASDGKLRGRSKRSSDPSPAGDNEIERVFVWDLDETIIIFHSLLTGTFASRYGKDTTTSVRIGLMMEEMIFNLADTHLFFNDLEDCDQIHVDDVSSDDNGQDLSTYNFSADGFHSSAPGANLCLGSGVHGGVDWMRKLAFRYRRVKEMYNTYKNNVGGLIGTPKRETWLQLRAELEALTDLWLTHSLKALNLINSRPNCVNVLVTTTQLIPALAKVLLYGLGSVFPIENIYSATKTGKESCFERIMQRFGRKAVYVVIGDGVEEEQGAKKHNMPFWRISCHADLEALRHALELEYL
Target sequence (Q15475 whole entry, looked up): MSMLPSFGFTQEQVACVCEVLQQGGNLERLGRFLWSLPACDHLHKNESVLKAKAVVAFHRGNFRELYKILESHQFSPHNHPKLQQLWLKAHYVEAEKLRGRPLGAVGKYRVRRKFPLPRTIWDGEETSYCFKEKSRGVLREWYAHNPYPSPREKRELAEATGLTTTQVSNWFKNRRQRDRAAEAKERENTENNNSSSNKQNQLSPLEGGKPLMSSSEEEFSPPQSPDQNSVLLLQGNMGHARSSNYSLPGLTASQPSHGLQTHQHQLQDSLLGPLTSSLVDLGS
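AlphaScreen luminescence read after one hour at 37 °C in darkness. Pin-transferred compounds met GST-Six1 and His-Eya2 protein (5X stock 250 nM/500 nM) plus glutathione donor and Ni-chelate acceptor beads (5X, 50 ug/mL).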
TRPV1 PAM: enhances activation of the human vanilloid receptor TRPV1. TRPV1-expressing cells, Fluo-8 calcium influx, capsaicin EC20 potentiation; host cell line not named in the record; control for the full effect not named in the record. potentiation, % at 8.33 µM. actives 0.02% (n = 320,000); active means potentiation above 80%; inconclusive means 30% to 80%; inactive means below 30%; also: 0% is about no effect
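Cells expressing TRPV1 were dye-loaded with Fluo-8 and read kinetically: 10 s baseline, 3 min after compound (agonist portion), then 2 min after EC20 capsaicin (allosteric enhancer portion). Calcium-bound dye fluorescence at 480/520 nm.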
CtBP-E1A inh: inhibitors of CtBP/E1A interaction; AlphaScreen GST-E1A/His-CtBP binding, 1536-well; hits give low values; control for the full effect not named in the record; activity change, % (no concentration beside the values); actives 0.49% (n = 340,000); in the data active means activity change below about -65%; inconclusive means about -30% to -65%; inactive means above about -30%; also: % is scaled to controls: 0 for no effect and ±100 for the full control effect; compound concentration not given in the record
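In 5 uL wells, 23 nL compound meets equimolar GST-E1A and His-CtBP (5X stock 125 nM each) for 2 h, 37 °C. Beads (5X, 50 ug/mL) then 1 h, 37 °C, dark.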
PINK1 modulator: changes PINK1 expression; Potency, µM (doses to about 76.6 µM), for inactives: at the highest dose activation (PINK1 increase), usual class: activators; actives 0.2% (n = 410,000); AID 624263; PINK1 immunofluorescence, high-content cytometry, 24 h; active = well fitted activation curve with a large enough effect; inconclusive = small, poorly fitted or top-dose-only effect; inactive = flat fitted curve, though single readings scatter; cell line not stated here;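 also: potency is read from the fitted curve at half-maximal effect; % of control where 0% means no effect; nearly all actives have a fitted effect of over 65% in size; a mitochondrial uncoupler was the plate control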
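Fluorescence from anti-PINK1 antibody, together with nuclear and cell stains, was scanned on a laser-scanning cytometer. Before staining, stable-line cells were incubated 24 hours with compounds at 5 concentrations; primary antibody 12 h at 10 degrees C.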
D2 ag: activates the human D2 dopamine receptor | actives 0.084% (n = 360,000) | AID 624465 | P14416 | activation, % (test concentration not listed) | DiscoveRx PathHunter D2 beta-arrestin, luminescence, 90 min; 100% = 57 uM dopamine signal; in the data active = activation above about 40%; inconclusive = about 15% to 40%; inactive = below about 15%; also: compound concentration not given in the record; the text of the record calls up to 30% inactive
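DiscoveRx PathHunter D2 beta-arrestin cells (2,100/well) attached overnight, then compound-stimulated 90 min at 37 C in HBSS/10 mM HEPES/0.1% Tween-20 buffer; beta-galactosidase complementation read by luminescence after 1 h at ambient temperature. Dopamine 57 uM final (EC100) as control.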
* marks the source's active call; other numbers are inactive results; ? = inconclusive; . = not tested or not shown; [ ] = dose if it differs, or a comment. Random draw from the library; about 3.7% have a hit in one of these screens.

structure,D2 PAM,Sfp inh,Six1-Eya2 inh,TRPV1 PAM,CtBP-E1A inh,PINK1 modulator,D2 ag
Cc1ccc(NC(=O)CN2C(=O)NC(C)(c3ccc(Cl)cc3)C2=O)cc1S(=O)(=O)N1CCOCC1 (stereo not given),-12,30%[activator],-13,-5,-17,5.9%,1.2
CCN1C(=O)CS/C1=N\S(=O)(=O)c1ccc(Cl)cc1,-1,2%,-10,1,9,0.1%,-1.7
CN(Cc1c(C(=O)N/N=C/c2cccc(O)c2)nnn1-c1nonc1N)c1ccccc1,-1,2%,-2,3,-5,2.2%,0.8
O=C(CCS(=O)(=O)c1cc(Br)cc2c1N(C(=O)C1CC1)CC2)NCc1ccco1,-7,?,-10,-28,-4,1.0%,-2.7
O=C1CC(SCCc2nc3ccccc3[nH]2)C(=O)N1c1ccc(Cl)cc1 (stereo not given),-7,-13%,5,0,-2,0.2%,-2.1
CN(C)c1ccc(C2(c3ccc(N(C)C)cc3)OC(=O)c3cc(N)ccc32)cc1,0,-4%,?,12,?,4.2%,-0.4
CSc1ncccc1C(=O)Nc1ccc(S(=O)(=O)N2CCCC2)cc1,-2,.,0,-9,1,0.3%,3.3
Cc1c(/C=N/Nc2ccc(C(=O)O)cc2)c2ccccc2n1C,6,-25%,-4,2,1,1.8%,7.4
CC(NC(=O)N1CCN(c2ccccc2F)CC1)c1ccc(F)c(F)c1 (stereo not given),-12,14%,-5,0,-21,4.5%,0.5
O=C(CN1C(=O)C2CC=CCC2C1=O)Nc1ccc(F)c(Cl)c1 (stereo not given),-14,.,-7,.,4,1.7%,1.2
S=c1[nH]nc(-c2cccs2)n1Cc1ccccc1,-12,2%,3,-21,5,-0.5%,-7.1
C=CCn1c(SCCOc2ccc(OC)cc2)nnc1C(CO)NC(=O)c1ccc(OC)cc1 (stereo not given),-1,14%,-2,11,-1,-3.8%[38.3 µM],0.4
Cc1cc(=O)[nH]c(N/N=C/c2ccc3c(c2)OCCO3)n1,-7,56µM*,10,-18,-12,0.2%,-1.4
O=C(Nc1cccc(N=Cc2cc(Cl)cc(Br)c2O)c1)c1ccco1,-30,6%,-2,-1,-7,2.3%,-7.8
Cc1coc2cc3oc(=O)c(CC(=O)N[C@@H](CC(C)C)C(=O)O)c(C)c3cc12,-2,3%,11,20,-1,-0.4%,2.8
CC(=NNC1=NCCN1)c1cn(C2=NCCN2)nc1C,-9,.,13,.,11,1.5%,-6.0
COc1ccc(C2CC(=O)C3=C(C2)NC(C)=C(C#N)C3c2ccc(N(C)C)cc2)cc1 (stereo not given),-10,2%,-12,-1,-21,1.3%,-1.2
O=C(O)c1nn(CCOc2ccc(Br)cc2)c(=O)c2ccccc12,-1,-14%,-9,-40,-4,2.4%,-1.1
O=C(COC(=O)c1ccccn1)Nc1cccc2ccccc12,-8,28%,15,0,-13,3.0%,-2.6
O=C1NNC(=O)C2C3C=CC(C4CC34)C12 (stereo not given),-3,8%,-4,1,-8,.,-3.5
CCCCN(C(=O)C1CCCC1)c1c(N)n(CC(C)C)c(=O)[nH]c1=O,-4,.,8,0,0,-2.0%,-3.4
O=C(CN(C(=O)c1csnn1)c1ccc2c(c1)OCCO2)NCc1ccc(F)cc1,-4,11%,0,-6,-18,-0.1%,-1.9
O=C(COC(=O)CCC(NC(=O)OCc1ccccc1)C(=O)OCC(=O)Nc1ccccc1)Nc1ccccc1 (stereo not given),13,17%,-3,6,2,7.5%,1.9
COc1ccc(C(=O)Nc2ccc([N+](=O)[O-])cn2)cc1OC,-27,16%,-2,-6,-7,0.8%,0.0
CCc1ccccc1NC1c2ccccc2C(=O)N1c1cccnc1 (stereo not given),-1,-8%,-4,8,0,0.1%,-3.7
CCN(CC)CCN(C(=O)CCS(=O)(=O)c1ccccc1)c1nc2cc(OC)c(OC)cc2s1,-8,?,-1,6,2,1.3%,-0.5
O=C(O)c1ccc(CNC(=S)Nc2ccccc2)cc1,-2,8%,-11,-10,-15,-0.5%,-0.8
CCN(C[C@H]1N[C@@](Cc2ccccc2)(C(=O)OC)[C@H]2C(=O)N(C)C(=O)[C@@H]12)S(=O)(=O)c1ccc(OC)cc1,.,.,-1,.,6,0.4%,1.1
C=CCNc1nc2cc(-c3cccc(NC(C)=O)c3)sc2c(=O)n1C,-6,.,-7,.,1,7.1%,2.7
CCCCn1c(=O)c(CCC(=O)OCC(=O)NC(=O)NCCC(C)C)nc2ccccc21,-4,-1%,4,0,.,1.8%,-5.1
COc1ccc(OCc2cc(C(=O)NCC(C)Oc3cccnc3)no2)c(Cl)c1 (stereo not given),-7,22%,-5,1,-3,2.6%,5.4
CC1(C(=O)NS(=O)(=O)c2cccs2)CCN1C(=O)c1ccccc1CCc1ccccc1 (stereo not given),6,.,26,.,0,-1.0%,-2.2
CCC1=NN(C(=O)c2ccc(Cl)cc2)C(O)(c2ccc(C)cc2)C1 (stereo not given),-7,8%,0,15,-5,?,-4.3
O=C(NC1CCCc2ccccc21)c1cncc(Br)c1 (stereo not given),-22,11%,-4,-4,3,8.2%,-3.3
O=c1c(/C=C(\O)c2ccc(F)cc2)nc2ccccc2n1-c1ccccc1,-16,?,6,-26,3,28%,-7.2
Cc1nnc(SCC(=O)Nc2sccc2C#N)n1Cc1ccccc1,1,-19%,3,6,1,-1.1%,-0.4
COC(=O)C(Cc1ccc(O)cc1)NC(=O)C12CC3CC(CC(C3)C1)C2 (stereo not given),-1,12%,1,6,.,1.6%,-2.7
CN(C)S(=O)(=O)N1CCN(C(=O)c2cccs2)CC1,-4,-3%,2,-6,13,-0.1%[38.3 µM],-2.2
O=C(Nc1cccc(NC(=O)c2ncn[nH]2)c1)c1cccc(Cl)c1,-3,21%,-10,8,-2,14%,-1.9
CCCn1c(SCC(=O)NCCc2ccccc2)nnc1-c1ccco1,-2,9%,-1,?,-2,-2.2%,-1.9
O=C(c1c[nH]c(C(=O)C(Cl)(Cl)Cl)c1)c1ccccc1Br,-6,9%,5,-6,2,0.7%,-2.3
Cc1ccc(S(=O)(=O)Nc2nc3ccccc3nc2N2CCOCC2)cc1,-1,.,3,.,3,-2.9%,-2.6
CCOc1ccc(/C=C2/SC(=O)NC2=S)cc1,7,-17%,-9,-6,-1,1.4%,-7.7
CC(=O)NCc1ccc(S(=O)(=O)N/N=C/c2ccc(N(C)C)cc2)cc1,-4,-12%,2,-1,16,0.4%,-2.2
CC(=O)c1cccc(NC(=O)/C(=C\c2cccnc2)NC(=O)c2ccccc2)c1,-6,17%,1,15,-15,11%,-4.1
CCCCC(=O)Nc1cccc(NC(=O)c2ccccc2Br)c1,-7,9%,-2,4,8,11%[38.3 µM],-1.6
Cc1ccc(NC(=O)[C@H](C)NC(=O)C2CCN(C(=O)[C@H](CC(C)C)NC(=O)OC(C)(C)C)CC2)cc1,-6,6%,8,7,-14,-3.4%,1.3
CN(C)/C=N/c1nc2nccc(-c3ccc(F)cc3)n2n1,-5,-4%,-1,?,-6,-0.9%,0.4

Compound profiles (already shown).
Shown for O=C(CN(C(=O)c1csnn1)c1ccc2c(c1)OCCO2)NCc1ccc(F)cc1 : D2 PAM: -4; Sfp inh: 11%; Six1-Eya2 inh: 0; TRPV1 PAM: -6; CtBP-E1A inh: -18; PINK1 modulator: -0.1%; D2 ag: -1.9
Shown for O=C(Nc1cccc(NC(=O)c2ncn[nH]2)c1)c1cccc(Cl)c1 : D2 PAM: -3; Sfp inh: 21%; Six1-Eya2 inh: -10; TRPV1 PAM: 8; CtBP-E1A inh: -2; PINK1 modulator: 14%; D2 ag: -1.9

Other results follow:
structure,D2 PAM,Sfp inh,Six1-Eya2 inh,TRPV1 PAM,CtBP-E1A inh,PINK1 modulator,D2 ag
Fc1cccc(CSc2nnc3c(n2)[nH]c2ccccc23)c1,-9,17%,-19,7,-2,0.5%,4.0
CCOc1ccc(NC(=O)CN2C(=O)COc3ccc(S(=O)(=O)N4CCCCC4)cc32)cc1,-1,4%,0,-2,-3,0.5%,1.4
Cc1cc(C)cc(N=Cc2[nH]c3ccc(Br)c(Cl)c3c2O)c1,-12,-10%,1,-11,-10,?,5.9
O=C(Nc1ccccc1)Nc1ccc(NC(=O)c2ccccc2O)cc1,-12,-5%,8,-3,1,6.6%,-5.1
COC(=O)c1cccc(N(C(=O)c2ccco2)C(C(=O)NC2CCCC2)c2ccco2)c1 (stereo not given),-20,6%,0,8,-3,-2.5%,-3.1
Cn1c(=O)[nH]c(=O)c2c1nc(NCCCn1ccnc1)n2Cc1cccc(Br)c1,-8,20%,-6,2,-3,1.6%,-2.9
COc1cc(/C=N/Nc2nc(=O)[nH]nc2C)cc(OC)c1O,-12,35µM*,?,6,?,-0.5%,0.1
COc1cc2ccc(C(C)=O)c(O)c2cc1OC,-10,.,6,.,3,-2.1%,-4.6
COc1cc(C2c3cc4c(cc3OC(NNC(N)=S)C2C)OCO4)cc(OC)c1OC (stereo not given),-2,.,-15,.,-5,1.6%,-1.6
CC1CCN(c2ccc3c(c2)S(=O)(=O)c2cccc(C(=O)O)c2C3=O)CC1,-11,.,-10,.,-1,0.2%,-2.0
S=c1[nH]nc(-c2ccc(Br)o2)n1Cc1ccccc1,-10,-1%,-3,3,-6,2.3%[38.3 µM],1.5
C=C(C)[C@@H]1CC=C(CN2CCC(N3CCC(C(=O)N4CCCC4)CC3)CC2)CC1,-7,10%,3,1,8,12%,-2.7
COc1ccc(C(C)(O)c2nc(-c3cc(F)cc(F)c3)cs2)cc1 (stereo not given),-2,.,-1,.,7,6.8%,4.9
CCOC(=O)C(NC(=O)CC)(Nc1cc(C)on1)C(F)(F)F (stereo not given),-15,-4%,0,1,1,1.0%,-2.4
CC(=O)OCC1OC(Sc2cccc3cccnc23)C(OC(C)=O)C(OC(C)=O)C1OC(C)=O (stereo not given),5,-12%,-85*,3,-85*,1.6%,-1.3
CCc1nnc(NC(=O)C2CCCCC2)s1,-15,32µM*,1,-13,10,0.0%[38.3 µM],-2.5
CC(C)(C)C(=O)NC(c1ccccc1)c1c(O)ccc2ccccc12 (stereo not given),-3,13%,2,-5,-2,?,-3.6
CN(CC(=O)Nn1cnnc1)S(=O)(=O)c1ccc(Br)cc1,-2,11%,1,7,5,1.2%[38.3 µM],0.2
